Compound activity: PubChem, several laboratories
Mtb hypoxia rep: PubChem AID 1159583 | M. tuberculosis hypoxia-regulated fluorescent reporter, fluorescence | fluorescence inhibition, % (concentration not given with the values) | 300,000 tested, 0.1% active;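 active means 35 to 45% if threefold the growth effect, above 45% if 1.5-fold the growth effect; inactive means the rest, general growth blockers included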;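 further: wells of about 50 µL received 100 nL stock; 0% = vehicle wells and 100% = reference inhibitor wells; whole bacteria with a GFP reporter of the hypoxia response; strong numbers were not always called active; many hits fall short of the cut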
Sa ugtP lethal: growth inhibition of ugtP-null S. aureus, primary screen, RN4220 ugtP deletion, OD600; 330,000 tested, 0.54% active; 16 h; some inactives read as strong as hits; growth inhibition, % (concentration not given with the values);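 active means z-score under -3 and OD600 up to 0.15 on both plates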;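 further: plate controls were untreated wells for no effect and antibiotic for full effect; wells of about 80 µL received 100 nL stock; the first replicate is given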
BJeLR viability: MLPCN primary cell-based screen for lethality selective to Ras in HRASV12 cells; BJeLR (HRASV12) viability, CellTiter-Glo ATP luminescence, 48 h; reference of the scale not given here; inhibition, % (concentration not given with the values); 300,000 tested, 0.17% active; AID 1554, 2009;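 active means replicate mean above 50%; inconclusive means above 50% but judged a plate artefact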;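 further: 50 nL library stock added to about 25 µL; numbers are from one replicate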
RN4220 kill: growth inhibition of S. aureus RN4220, primary screen, OD600; 16 h; inhibition, % (test concentration not listed); 330,000 tested, 0.33% active;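 active means z-score of -3 or lower and OD600 up to 0.18 on both plates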;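 further: plate controls were untreated cells for no effect and reference antibiotic for full effect; stock transfer was 100 nL into about 80 µL; one replicate is shown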
PrP UTR inh: inhibition of PrP 5' UTR reporter expression; cell-based PrP 5' UTR mRNA reporter, plate reader; inhibition, % (no concentration beside the values); 340,000 tested, 0.35% active;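 active means every replicate at 50% or more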;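 further: 0 = median of the neutral control wells; tested in H4 reporter cells; numbers are from one replicate; inactives centre near -14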
Autofluor counter: counter-screen for toxin protease inhibitors: compound fluorescence. compound autofluorescence counterscreen, microsphere flow cytometry; stronger effect = higher value. fluorescence intensity (no concentration beside the values). 360,000 tested, 3.1% active;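 active means at least 3 SD above the mean of all compounds, about 16000 in these data; inconclusive means too few beads counted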;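 further: 100 nL of 1 mM stock went into each well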
Mtb hypoxia rep growth: further read-out of Mtb hypoxia rep, marked with its call; growth inhibition, %; measured here: M. tuberculosis growth (absorbance);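 0% = vehicle and 100% = reference antibiotic; read after six days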
* hit, by the source's call.

The opening 5 records, ahead of the listing:
Results for CCN(CC)CCNC(=O)c1ccc(NC(=O)Cc2ccc(OC)c(S(=O)(=O)N3CCOCC3)c2)cc1 ?
Mtb hypoxia rep: 16; Sa ugtP lethal: 1; RN4220 kill: -0.5; PrP UTR inh: -7; Autofluor counter: 3963; Mtb hypoxia rep growth: 46

What do the screens show for `COc1ccc(CNC(=O)C(=O)NCC2OCCN2S(=O)(=O)c2cccs2)cc1` (configuration not stated)?
Mtb hypoxia rep: -12; Sa ugtP lethal: 2; BJeLR viability: 7; RN4220 kill: 2.7; PrP UTR inh: -16; Autofluor counter: 7030; Mtb hypoxia rep growth: 0

Results for NC(=S)NCc1cccnc1 ?
Mtb hypoxia rep: -8; Sa ugtP lethal: -5; BJeLR viability: -10; RN4220 kill: -2.4; PrP UTR inh: -6; Autofluor counter: 2638; Mtb hypoxia rep growth: -5

What do the screens show for `C/C(=C\c1ccccc1F)C(=O)c1c(C)cc(C)[nH]c1=O`?
Mtb hypoxia rep: 5; Sa ugtP lethal: 8; BJeLR viability: -2; RN4220 kill: -0.7; PrP UTR inh: 8; Autofluor counter: 3939; Mtb hypoxia rep growth: -5

Results for CCOC(=O)C(Cc1c[nH]c2ccccc12)NC(=O)c1ccccc1Br (configuration not stated) ?
Mtb hypoxia rep: 8; Sa ugtP lethal: 12; BJeLR viability: -12; RN4220 kill: -3.8; PrP UTR inh: -63; Autofluor counter: 3692; Mtb hypoxia rep growth: 7

All compounds of this part, repeating the preview:
Results for CCN(CC)CCNC(=O)c1ccc(NC(=O)Cc2ccc(OC)c(S(=O)(=O)N3CCOCC3)c2)cc1 ?
Mtb hypoxia rep: 16; Sa ugtP lethal: 1; RN4220 kill: -0.5; PrP UTR inh: -7; Autofluor counter: 3963; Mtb hypoxia rep growth: 46

What do the screens show for `COc1ccc(CNC(=O)C(=O)NCC2OCCN2S(=O)(=O)c2cccs2)cc1` (configuration not stated)?
Mtb hypoxia rep: -12; Sa ugtP lethal: 2; BJeLR viability: 7; RN4220 kill: 2.7; PrP UTR inh: -16; Autofluor counter: 7030; Mtb hypoxia rep growth: 0

Results for NC(=S)NCc1cccnc1 ?
Mtb hypoxia rep: -8; Sa ugtP lethal: -5; BJeLR viability: -10; RN4220 kill: -2.4; PrP UTR inh: -6; Autofluor counter: 2638; Mtb hypoxia rep growth: -5

What do the screens show for `C/C(=C\c1ccccc1F)C(=O)c1c(C)cc(C)[nH]c1=O`?
Mtb hypoxia rep: 5; Sa ugtP lethal: 8; BJeLR viability: -2; RN4220 kill: -0.7; PrP UTR inh: 8; Autofluor counter: 3939; Mtb hypoxia rep growth: -5

Results for CCOC(=O)C(Cc1c[nH]c2ccccc12)NC(=O)c1ccccc1Br (configuration not stated) ?
Mtb hypoxia rep: 8; Sa ugtP lethal: 12; BJeLR viability: -12; RN4220 kill: -3.8; PrP UTR inh: -63; Autofluor counter: 3692; Mtb hypoxia rep growth: 7

What do the screens show for `O=C(CSc1ncc(-c2ccccc2)nn1)NCc1ccco1`?
Mtb hypoxia rep: 13; Sa ugtP lethal: -4; BJeLR viability: 5; RN4220 kill: 0.1; PrP UTR inh: -22; Autofluor counter: 10806; Mtb hypoxia rep growth: 16

What do the screens show for `Cn1c(=O)c2c(ncn2CC(O)CNc2ccc(F)cc2)n(C)c1=O` (configuration not stated)?
Mtb hypoxia rep: -8; Sa ugtP lethal: 3; BJeLR viability: -2; RN4220 kill: 4.1; PrP UTR inh: -33; Autofluor counter: 5470; Mtb hypoxia rep growth: 3

What do the screens show for `CCOC(=O)C1CCCN(c2c(NCCc3ccccc3)c(=O)c2=O)C1` (configuration not stated)?
Mtb hypoxia rep: 2; Sa ugtP lethal: 3; BJeLR viability: 2; RN4220 kill: 2.5; PrP UTR inh: -9; Autofluor counter: 6068; Mtb hypoxia rep growth: 0

What do the screens show for `Cc1cnc(NC(=O)c2ccc3c(c2)OCCO3)s1`?
Mtb hypoxia rep: 9; Sa ugtP lethal: 3; RN4220 kill: 5.4; PrP UTR inh: 81*; Autofluor counter: 3868; Mtb hypoxia rep growth: 7

Results for Cc1cccc2sc(NNC(=O)C3COc4ccccc4O3)nc12 (configuration not stated) ?
Mtb hypoxia rep: 6; Sa ugtP lethal: 12; BJeLR viability: -3; RN4220 kill: -9.8; PrP UTR inh: -1; Autofluor counter: 5475; Mtb hypoxia rep growth: 2

How did CCN(CC)CCNC(=O)c1ccc(Cl)c(S(=O)(=O)Nc2ccccc2OC)c1 do in these assays?
Sa ugtP lethal: 5; BJeLR viability: 2; RN4220 kill: 2.8; PrP UTR inh: -10; Autofluor counter: 2903

Results for Fc1cccc(Cl)c1C=NNc1c(Cl)cncc1Cl ?
Mtb hypoxia rep: 3; Sa ugtP lethal: -3; RN4220 kill: 0.8; Mtb hypoxia rep growth: -6

How did O=C1CCCc2c1cc(C(=O)NCCCN1CCOCC1)c(=O)n2-c1ccc(Cl)cc1 do in these assays?
Sa ugtP lethal: -14; BJeLR viability: 2; RN4220 kill: 0.6; PrP UTR inh: -19; Autofluor counter: 4743

How did Cc1nc(C)c(C(=O)N(c2ccccc2F)C(C(=O)NCC2CCCO2)c2ccccc2)s1 (configuration not stated) do in these assays?
Mtb hypoxia rep: 9; Sa ugtP lethal: 2; BJeLR viability: -1; RN4220 kill: 6.4; PrP UTR inh: -11; Autofluor counter: 5711; Mtb hypoxia rep growth: 8

What do the screens show for `O=S(=O)(c1ccc(NCc2ccc(F)cc2)nc1)N1CCCC1`?
Mtb hypoxia rep: 4; Sa ugtP lethal: 2; BJeLR viability: -4; RN4220 kill: 1.8; PrP UTR inh: -9; Autofluor counter: 4359; Mtb hypoxia rep growth: -4

Results for CCCOC(=O)CSC1=C(C#N)C(c2ccccc2OCC)C(C#N)C(=O)N1 (configuration not stated) ?
Sa ugtP lethal: 3; BJeLR viability: -3; RN4220 kill: -2.1; PrP UTR inh: -14; Autofluor counter: 4560

What do the screens show for `CCOC(=O)N1CCN(C(=O)CC(C)S(=O)(=O)c2cc3c(cc2C)NC(=O)CO3)CC1` (configuration not stated)?
Mtb hypoxia rep: 17; Sa ugtP lethal: 12; BJeLR viability: -9; RN4220 kill: 4.7; PrP UTR inh: -13; Autofluor counter: 6107; Mtb hypoxia rep growth: 8

What do the screens show for `COC(=O)c1ccc(C23CC4(C2)[C@H](CN(C)[C@@H]4c2ccccc2)C3c2ccc(C(F)(F)F)cc2)cc1` (some centres not stated)?
BJeLR viability: 4; PrP UTR inh: -23; Autofluor counter: 4287

What do the screens show for `COc1ccc(/C=C/C(=O)NCCc2ccc(S(N)(=O)=O)cc2)cc1`?
Mtb hypoxia rep: 1; Sa ugtP lethal: -1; BJeLR viability: -10; RN4220 kill: 4.1; PrP UTR inh: -17; Autofluor counter: 2219; Mtb hypoxia rep growth: 10

Results for CC(CC(C)C)=NNC(=O)Nc1ccccc1 ?
Mtb hypoxia rep: -3; Sa ugtP lethal: -1; RN4220 kill: 7.3; Mtb hypoxia rep growth: -1

What do the screens show for `COc1ccc(-n2c(SCC(=O)NNC(=O)c3ccc(C)cc3)nnc2-c2ccncc2)cc1`?
Mtb hypoxia rep: -5; Sa ugtP lethal: 5; BJeLR viability: 1; RN4220 kill: 0.4; PrP UTR inh: 2; Autofluor counter: 2389; Mtb hypoxia rep growth: 7

Results for O=C(Nc1ccc(N2CCOCC2)nc1)c1ccc(C(F)(F)F)cc1 ?
Mtb hypoxia rep: -2; Sa ugtP lethal: 3; RN4220 kill: 3.8; PrP UTR inh: 6; Autofluor counter: 3899; Mtb hypoxia rep growth: 11

Results for O=C(Oc1ccc(-c2nnco2)cc1)c1ccco1 ?
Mtb hypoxia rep: 5; Sa ugtP lethal: 0; BJeLR viability: -8; RN4220 kill: 7.0; PrP UTR inh: -27; Autofluor counter: inconclusive; Mtb hypoxia rep growth: 3

How did Cc1cc(C)cc(OCCn2ccnc2)c1 do in these assays?
Mtb hypoxia rep: 8; Sa ugtP lethal: 2; BJeLR viability: -2; RN4220 kill: 2.1; PrP UTR inh: -16; Autofluor counter: 3614; Mtb hypoxia rep growth: 10

What do the screens show for `Cc1ccc(OCC(=O)Nc2ccc(N(C)C)cc2)cc1`?
Mtb hypoxia rep: 12; Sa ugtP lethal: 0; BJeLR viability: 2; RN4220 kill: 5.1; PrP UTR inh: -17; Autofluor counter: 3154; Mtb hypoxia rep growth: -5

What do the screens show for `COC(=O)c1[nH]c2cccc(C)c2c1NC(=O)CN1CCN(C(=O)c2ccco2)CC1`?
Sa ugtP lethal: -1; BJeLR viability: -3; RN4220 kill: 0.4; PrP UTR inh: -12; Autofluor counter: 5034

How did CCOC(=O)Cn1cnc2c(nnn2-c2ccccc2)c1=O do in these assays?
Mtb hypoxia rep: -1; Sa ugtP lethal: -2; BJeLR viability: -25; RN4220 kill: 1.7; PrP UTR inh: 7; Autofluor counter: 6025; Mtb hypoxia rep growth: -2

Results for CCCc1c(C(=O)N/N=C(/C)c2ccncc2)nnn1-c1nonc1N ?
BJeLR viability: 2; PrP UTR inh: -22; Autofluor counter: 4048

Results for CCN(CC)Cc1c(C(=O)N/N=C/c2ccccn2)nnn1-c1nonc1N ?
BJeLR viability: 5; PrP UTR inh: -4; Autofluor counter: 5444

What do the screens show for `COc1cc(OC)cc(-c2nnc(NC(=O)CCS(=O)(=O)c3ccc(C)cc3)o2)c1`?
Mtb hypoxia rep: 3; Sa ugtP lethal: 5; BJeLR viability: 1; RN4220 kill: 2.2; PrP UTR inh: -4; Autofluor counter: inconclusive; Mtb hypoxia rep growth: -7

How did O=C(C1CC(=O)N(c2ccc(Cl)cc2)C1)N1CCCCCC1 (configuration not stated) do in these assays?
Mtb hypoxia rep: 1; Sa ugtP lethal: -3; BJeLR viability: 5; RN4220 kill: -1.9; PrP UTR inh: 1; Autofluor counter: 3650; Mtb hypoxia rep growth: 13

Results for CC(Oc1ccc(-c2ccccc2)cc1)C(=O)N1CCOCC1 (configuration not stated) ?
Sa ugtP lethal: -9; BJeLR viability: 2; RN4220 kill: 0.0; PrP UTR inh: -4; Autofluor counter: 2218

Results for Cn1cccc1-c1nc2ccccc2n1C ?
Mtb hypoxia rep: 4; Sa ugtP lethal: 5; BJeLR viability: 1; RN4220 kill: 8.9; PrP UTR inh: -29; Autofluor counter: 4155; Mtb hypoxia rep growth: 5

What do the screens show for `Cc1cccc(C)c1NC(=O)CN(C)CC(=O)Nc1ccc(F)c(Cl)c1`?
Mtb hypoxia rep: 12; Sa ugtP lethal: 3; RN4220 kill: 2.2; PrP UTR inh: -4; Autofluor counter: 3936; Mtb hypoxia rep growth: 1

What do the screens show for `CCN(C(=O)CSc1nc(-c2ccccc2)c(-c2ccccc2)[nH]1)C1CCS(=O)(=O)C1` (configuration not stated)?
Mtb hypoxia rep: 0; Sa ugtP lethal: 6; BJeLR viability: -4; RN4220 kill: -1.3; PrP UTR inh: -11; Autofluor counter: inconclusive; Mtb hypoxia rep growth: 7

What do the screens show for `Cc1noc(NS(=O)(=O)c2ccc(NS(=O)(=O)c3ccc(Cl)cc3)cc2)c1C`?
Mtb hypoxia rep: 12; Sa ugtP lethal: 2; RN4220 kill: -0.4; PrP UTR inh: -13; Autofluor counter: 3791; Mtb hypoxia rep growth: 10

What do the screens show for `CCc1ccc(NC(=O)CN(c2cccc(C)c2)S(C)(=O)=O)cc1`?
Mtb hypoxia rep: 11; Sa ugtP lethal: 5; BJeLR viability: 5; RN4220 kill: 5.3; PrP UTR inh: -31; Autofluor counter: 23603*; Mtb hypoxia rep growth: -1

How did Brc1ccc(CSc2nnc(-c3cnccn3)n2Cc2ccco2)cc1 do in these assays?
Mtb hypoxia rep: -1; Sa ugtP lethal: 1; BJeLR viability: 3; RN4220 kill: 0.7; Autofluor counter: 11396; Mtb hypoxia rep growth: 1

What do the screens show for `CC1CC2C(C(O)CC3(C)C2CCC3(O)C(=O)CO)C2(C)C=CC(=O)C=C12` (configuration not stated)?
Mtb hypoxia rep: 13; Sa ugtP lethal: 4; RN4220 kill: 2.8; PrP UTR inh: -12; Autofluor counter: 3568; Mtb hypoxia rep growth: 15

What do the screens show for `N#Cc1c(C(F)(F)F)cc(-c2ccccc2)nc1SCC(=O)N1CCOCC1`?
Mtb hypoxia rep: 4; Sa ugtP lethal: -1; BJeLR viability: 4; RN4220 kill: 4.6; PrP UTR inh: -4; Autofluor counter: inconclusive; Mtb hypoxia rep growth: 1
